Screening data: PubChem BioAssay, National Center for Advancing Translational Sciences (NCATS)
Menin MLL FP FL = qHTS Assay for Inhibitors Targeting the Menin-MLL Interaction in MLL Related Leukemias: Competition With Fluorescein Labeled MLL-derived Peptide. AID 1766, 2009. Fluorescence polarization, fluorescein-MLL peptide displacement from menin. FP activity change, % at 61.4 µM. 290,000 tested, under 10 active; inconclusive = falling polarisation curve, or a change in total fluorescence; inactive = total fluorescence flat and polarisation flat or rising; no compound was filed as active; the % refers to the polarisation; negative = inhibition;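 note: % of control where 0% means no effect; inhibitors lower the polarisation; unlabelled MLL peptide was the positive control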
gsp agonist = qHTS for Agonist of gsp, the Etiologic Mutation Responsible for Fibrous Dysplasia/McCune-Albright Syndrome: qHTS; gsp mutant cells, cAMP HTRF, 30 min; control for the full effect not named in the record; Potency, µM (top dose mostly 76.9 µM), inactives show at the top dose activation (cAMP increase), most hits filed as activators; actives 0.13% (n = 340,000); AID 624287, 2012; active = well fitted activation curve with a large enough effect; inconclusive = small, poorly fitted or top-dose-only effect, or another doubt; inactive = no such curve, though single readings can be large or run the other way; cell line not stated here;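 note: phosphodiesterase inhibitor Ro 20-1724 added with compounds to block cAMP breakdown; potency is the fitted concentration of half-maximal effect; nearly all actives have a fitted effect of over 60% in size; about a fifth of the inactives were tested at one dose only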
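Cells stably selected in G418 were plated at 2000/well, grown 16-24 hr, then given compounds in DMSO with the PDE inhibitor […] (300 uM solution added) for 30 min at 37C; cAMP was read by HTRF.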
gsp antagonist = qHTS for Antagonists of gsp, the Etiologic Mutation Responsible for Fibrous Dysplasia/McCune-Albright Syndrome: qHTS | actives 0.4% (n = 340,000) | AID 624288, 2012 | Potency, µM (titrated, usually from 76.9 µM), for inactives: at the top dose activity change, negative = inhibition, usual class: inhibitors | gsp-mutant cells, cAMP HTRF, 30 min; control for the full effect not named in the record; active = falling curve of any shape with a large fitted effect; inconclusive = falling curve, mostly with a smaller effect; inactive = flat or rising curve; cell line not stated here;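 note: intracellular cAMP measured with PDE inhibitor Ro 20-1724 present during compound exposure; potency is the fitted concentration of half-maximal effect; % is set by controls: 0 for no effect and ±100 for the full control effect; nearly all actives have a fitted effect of over 65% in size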
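HTRF cAMP read-out (cAMP-d2 plus anti-cAMP antibody-K in lysis buffer, 30 min RT). Before lysis, cells are exposed to compounds with […] for 30 min at 37C in DPBS containing Ca/Mg, BSA and Tween 20.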
ClpP mod = qHTS Assay for Activators of ClpP. purified B. subtilis ClpP, FRET peptide cleavage, 20 min. actives 1.9% (n = 340,000). ATP-dependent Clp protease proteolytic subunit (Bacillus subtilis (strain 168)), P80244. Potency, µM (highest dose often 57.5 µM), for inactives: at the top dose activity change, negative = active; active = well fitted falling curve with a large enough effect; inconclusive = small, poorly fitted or top-dose-only effect; inactive = no such curve, though single readings can be large or run the other way; note: potency is the fitted concentration of half-maximal effect; the source files actives as falling curves though it sought activators and does not explain the sign; nearly all actives have a fitted effect of over 65% in size; many hits overshoot -100%
Target sequence (P80244 whole entry, looked up): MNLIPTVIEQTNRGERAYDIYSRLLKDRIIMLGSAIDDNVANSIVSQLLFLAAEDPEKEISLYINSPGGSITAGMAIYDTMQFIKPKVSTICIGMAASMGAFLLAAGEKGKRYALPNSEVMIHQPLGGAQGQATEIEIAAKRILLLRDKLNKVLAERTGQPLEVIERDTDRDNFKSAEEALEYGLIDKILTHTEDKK
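FRET quenching reversal measured ClpP activation: 10 microg/mL B. subtilis ClpP at pH 8 with the FRET-FV decapeptide, read at 430 nm after 320 nm excitation. The 20-min minus 0-min signal was scaled between DMSO/no-enzyme wells and ADEP (5.8 microM final).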
TRPML1 ag = qHTS for Agonists of the Human Mucolipin Transient Receptor Potential 1 (TRPML1) | Mucolipin-1 (Homo sapiens), Q9GZU1 | TRPML1-expressing cells, Ca2+ dye fluorescence, FDSS; host cell line not named in the record; reference of the full effect not given here | activation, % (no concentration beside the values) | actives 0.12% (n = 410,000); in the data active = activation above about 50%; inconclusive = about 30% to 50%; inactive = below about 30%; note: 0% is about no effect; the text of the record puts the active cut at 80%
Target sequence (Q9GZU1 whole entry, looked up): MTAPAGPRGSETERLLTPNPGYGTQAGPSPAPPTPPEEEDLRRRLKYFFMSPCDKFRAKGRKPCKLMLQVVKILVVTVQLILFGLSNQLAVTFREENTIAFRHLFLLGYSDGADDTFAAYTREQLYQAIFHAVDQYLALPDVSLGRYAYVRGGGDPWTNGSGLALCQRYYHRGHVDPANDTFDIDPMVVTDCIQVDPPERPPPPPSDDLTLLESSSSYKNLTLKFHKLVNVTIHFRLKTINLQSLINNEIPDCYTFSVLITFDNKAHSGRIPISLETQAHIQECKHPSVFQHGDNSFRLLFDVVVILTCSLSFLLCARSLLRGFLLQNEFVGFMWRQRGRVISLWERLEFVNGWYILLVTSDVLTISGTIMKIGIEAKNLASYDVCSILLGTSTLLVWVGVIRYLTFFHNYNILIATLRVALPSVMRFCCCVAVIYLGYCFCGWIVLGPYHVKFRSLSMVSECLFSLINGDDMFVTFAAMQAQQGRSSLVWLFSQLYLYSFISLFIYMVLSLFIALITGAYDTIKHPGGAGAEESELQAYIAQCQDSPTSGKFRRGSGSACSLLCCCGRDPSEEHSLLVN
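In this qHTS format, compounds were pin-transferred onto Ca8-dye-loaded TRPML1-DL cells induced with Tet overnight, and intracellular Ca2+ fluorescence was recorded kinetically for 110 s after a 10 s baseline. A subsequent 4uM final 54-4 (EC80) addition followed by a second 110 s read served as the antagonist phase.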
TRPML1 inh = qHTS for Inhibitors of the Human Mucolipin Transient Receptor Potential 1 (TRPML1) | AID 624415, 2012 | TRPML1-inducible cells, Ca2+ dye fluorescence, FDSS; hits give low values; inhibition of EC80 agonist-evoked calcium signal | actives 0.02% (n = 390,000) | activity change, negative = inhibition, % (no concentration beside the values) | Mucolipin-1 (Homo sapiens), Q9GZU1; in the data active means activity change below about -50%; inconclusive means about -30% to -50%; inactive means above about -30%;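 note: stimulus is agonist 54-4 at its EC80 concentration; % is set by controls: 0 for no effect and ±100 for the full control effect; compound concentration not given in the record; the text of the record puts the active cut at -80%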
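Tet-induced TRPML1-DL cells loaded with Ca8 no-wash calcium dye were read kinetically on FDSS. Compound addition was followed by EC80 agonist 54-4 (4 uM final); inhibition was read over 110 s.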
An asterisk follows results filed as active; ? = inconclusive; nt = no result given; [ ] = dose if it differs, or a comment. Not all compounds are listed; count on the stated rates, not on these rows.

SMILES	Menin MLL FP FL	gsp agonist	gsp antagonist	ClpP mod	TRPML1 ag	TRPML1 inh
CC1CC(C)OP(=O)(OCCC#N)O1 (configuration not stated)	nt	-1%	8%	-2.4%	0.3	-9
CCCCc1ccc2[nH]cc(CCN)c2c1	8.4	-2%	7%	-2.7%	1.4	-3
COc1cccc(N2CCN(Cc3cccc(Cl)c3)CC2)c1	1.0	26%	-1%	0.2%	0.4	21
COC(=O)C1=C(c2cc3ccccc3o2)C[C@@H]2CC[C@H]1N2C(=O)N1CCCCC1	nt	5%	15%	-0.3%	-0.7	-1
CC=C(C)C1(CCC)C(=O)NC(=S)NC1=O	nt	16%	2%	?	0.6	23
Cc1ccccc1N1C(=O)NC(=O)/C(=C\c2cnn(-c3ccccc3)c2)C1=O	0.8	-26%	-11%	0.5%	-0.2	-2
C=CCn1c(O)c(C(C)=O)c(=O)[nH]c1=O (tested in a mixture with another compound)	?	1%[15.4 µM]	2%	-0.5%	0.1	3
CC(C)(C)N1C(=O)NC(=O)/C(=C\c2ccc3c(c2)CCN3CCCCl)C1=O	?	-12%[15.4 µM]	-2%	nt	1.2	5
CN1CCN(c2ccc(/C=C3\C(=O)NC(=S)N(c4cccc(Br)c4)C3=O)o2)CC1	?	-35%[inhibitor]	-2%	0.7%	12	-8
CCC1(OC(=O)CN)C(=O)OCc2c1cc1n(c2=O)Cc2cc3ccccc3nc2-1 (configuration not stated)	0.3	26%[15.4 µM]	-23%	-0.5%	-0.4	20
O=C1NC(=O)C(=CN2CCc3ccccc32)C(=O)N1	?	3%	3%	0.4%	1.6	-11
COc1ccc2c3c1OC1C(=O)CC[C@@]4(O)[C@@H](C2)N(CC2CC2)CC[C@]314 (some centres not stated)	nt	nt	0%	-24%	-0.1	31
COC1=CCC2([N+](=O)[O-])CN(C)CC1([N+](=O)[O-])C2 (configuration not stated)	2.5	-42%[inhibitor]	3%	0.0%	-0.2	9
COc1ccc2c(c1)CCCC2=O	nt	-5%	12%	nt	-0.6	0
C#C[C@]1(O)CCC2C3C(=O)C=C4C=CCC[C@]4(C)C3CC[C@@]21C (some centres not stated)	nt	-24%	-27%	nt	-0.9	2
O=C(Cn1c(NCCCl)nc2ccccc21)c1ccc(Br)cc1	nt	-4%	-1%	0.1%	0.3	8
CCCOc1ccccc1NP(=O)(Oc1ccccc1)Oc1ccccc1	5.2	3%	-6%	-3.1%	-0.2	4
c1ccc2c(c1)CNc1ccccc1O2	-2.6	8%	-1%	-1.7%	2.4	2
CC(=O)c1cccc(NC(=O)N2C[C@H]3C[C@@H](C2)c2cccc(=O)n2C3)c1	2.8	nt	8%	-2.5%	nt	nt
C=CC[C@@H](C)CC(=O)C(CCCN=[N+]=[N-])SOOc1ccccc1 (some centres not stated)	nt	nt	-2%	-0.3%	1.3	1
COc1ccc(C(CNC(=O)Cc2ccc(Cl)c(Cl)c2)N2CCCCC2)cc1 (configuration not stated)	nt	-22%	14%	-8.3%	0.1	22
COc1ccc(CNCCc2ccccc2F)c(OC)c1C	-3.1	-19%	12%	1.3%	-0.5	2
CN(C)/C=C/C(=O)C(Cl)(Cl)Cl	0.9	-40%[inhibitor]	6%	nt	-0.8	-4
Cc1c(C)c2ccc(OCC(=O)N3C[C@H]4C[C@@H](C3)c3cccc(=O)n3C4)cc2oc1=O	4.6	nt	0%	5.0%	nt	nt
CCN1CCC(N(C)C2CCCCC2)CC1	-9.0	6%[15.4 µM]	15%	-6.5%	-0.2	-8

Arranged by SMILES length (lowest first): part of the list above.
SMILES	Menin MLL FP FL	gsp agonist	gsp antagonist	ClpP mod	TRPML1 ag	TRPML1 inh
O=C(Cn1c(NCCCl)nc2ccccc21)c1ccc(Br)cc1	nt	-4%	-1%	0.1%	0.3	8
COc1ccc(C(CNC(=O)Cc2ccc(Cl)c(Cl)c2)N2CCCCC2)cc1 (configuration not stated)	nt	-22%	14%	-8.3%	0.1	22
C#C[C@]1(O)CCC2C3C(=O)C=C4C=CCC[C@]4(C)C3CC[C@@]21C (some centres not stated)	nt	-24%	-27%	nt	-0.9	2
CC(C)(C)N1C(=O)NC(=O)/C(=C\c2ccc3c(c2)CCN3CCCCl)C1=O	?	-12%[15.4 µM]	-2%	nt	1.2	5

Remaining list, next part.
SMILES	Menin MLL FP FL	gsp agonist	gsp antagonist	ClpP mod	TRPML1 ag	TRPML1 inh
COc1ccccc1NC(=O)c1oc2ccccc2c1NC(=O)c1ccccc1C(F)(F)F	nt	nt	nt	206%	-0.5	-1
CC1(C)C(=O)C=C[C@]2(C)[C@H]3CC[C@@]4(C)[C@H](c5ccoc5)OC(=O)[C@H]5O[C@]54[C@]3(C)[C@H](O)C[C@@H]12	2.6	nt	5%	2.1%	-0.7	12
CN(CC1COc2ccccc2O1)c1nc(-c2cccnc2)nc2ccccc12 (configuration not stated)	0.7	-17%	12%	-6.1%	3.3	3
COc1ccccc1CCNC1CCC(C)CC1 (configuration not stated)	-1.6	-21%	13%	-4.5%	0.3	6
CCN1CCC2(CC1)NC(=O)c1ccccc1O2	-6.9	-75%[inhibitor]	10%	0.9%	0.7	-6
O=c1[nH]c(=S)n(C2CC2)c(O)c1C=NCCc1ccccc1	0.5	5%[15.4 µM]	5%	0.3%	0.7	12
Cc1ccc(OCC(=O)N2CCN(Cc3ccc4c(c3)OCO4)CC2)cc1C	-1.5	3%	-5%	nt	1.6	14
CCCCn1c(O)c(C(C)=NCCCN(CC)CC)c(=O)[nH]c1=O	-0.5	?	15%	-0.7%	-0.4	-5
CC=CC(C)=CC(C)C(=O)CC(O)CC1CC(=O)NC(=O)C1 (configuration not stated)	nt	-70%[inhibitor]	nt	-0.1%	-0.6	20
CC(NC1CCCCC1)C(O)C12CC3CC(CC(C3)C1)C2 (configuration not stated)	0.7	0%	8%	-0.9%	0.7	-11
c1ccc2c(CN3CCCCC3)c[nH]c2c1	0.2	-14%	7%	1.5%	2.3	7
CC12CCC3C(CCC4(O)CC(O)CCC34C=NO)C1(O)CCC2C1=COC(=O)C1 (configuration not stated)	nt	-50%[inhibitor]	5%	-4.8%	-0.4	7
Cc1cc(C=C2C(=O)N(C)C(=S)N(C)C2=O)c(C)n1C1CCCC1	?	?	-26%	-1.8%	1.7	-2
COc1ccc(N2CCN(CCCN)CC2)cc1	nt	-14%	6%	-9.6%	-0.2	7
CC/C(=N\NC(=O)c1ccccc1)c1c(O)n(C2CCCCC2)c(=O)[nH]c1=O	-1.1	-4%	?	4.6%	0.7	6
COc1cc(/C=C2\C(=O)NC(=O)N(CCc3ccc(F)cc3)C2=O)ccc1O	?	2%	4%	nt	-0.2	4
COc1ccc(C2NCCc3[nH]cnc32)cc1 (configuration not stated)	-2.1	-11%[15.4 µM]	nt	nt	0.3	1
Cc1ccc(P(=S)(c2ccc(C)o2)N2CCOCC2)o1	3.0	-9%	5%	0.8%	-1.4	0
CCOP(=O)(OCC)/C(C#N)=C/c1ccoc1	?	9%[15.4 µM]	5%	nt	0.2	2
CCOC(=O)c1c(C)n(CCOC)c2ccc(O)cc12	1.0	3%	-3%	-2.8%	-0.2	4
Cc1[nH]c2c(C(F)(F)F)cccc2c1CCN	0.1	0%	8%	-10%	1.5	-11
CN1C(=O)C(C2c3ccccc3C(=O)N2Cc2ccccc2)C(=O)N(C)C1=O (configuration not stated)	0.6	15%	4%	-0.5%	-1.0	1
O=C(CNC(=O)c1ccccc1)Nc1ccc(Br)cc1C(=O)c1ccccc1	-1.2	-20%	?	-0.9%	-0.1	-9
CCC12CN3CC(CC)(CN(C1)C3c1cccnc1)C2=O (configuration not stated)	1.5	-16%	-8%	0.9%	-0.7	4
c1ccc(OCCSc2nc3ccccc3[nH]2)cc1	-0.6	?	-1%	-0.1%	1.5	-12

Taken from above (two entries):
SMILES	Menin MLL FP FL	gsp agonist	gsp antagonist	ClpP mod	TRPML1 ag	TRPML1 inh
CCC12CN3CC(CC)(CN(C1)C3c1cccnc1)C2=O (configuration not stated)	1.5	-16%	-8%	0.9%	-0.7	4
c1ccc(OCCSc2nc3ccccc3[nH]2)cc1	-0.6	?	-1%	-0.1%	1.5	-12

Further compounds:
SMILES	Menin MLL FP FL	gsp agonist	gsp antagonist	ClpP mod	TRPML1 ag	TRPML1 inh
Nc1ccc2c(c1)Cc1ccccc1-2	nt	23%	9%	11µM*	0.7	5
O=C(c1cccs1)C1CN2CCC1CC2 (configuration not stated)	-0.4	30%	-7%	0.9%	-0.2	-3
CN1c2ccc([N+](=O)[O-])cc2CC2(C(=O)NC(=O)NC2=O)C1c1ccccc1 (configuration not stated)	-1.4	19%	7%	-3.6%	-0.7	5
Cc1cc(C)n(-c2nc3nonc3nc2Nc2cccc(C)c2C)n1	-14	8%	-8%	-0.3%	-0.7	11
C=CCN1C(=O)/C(=C/c2cccs2)C(=O)NC1=S	?	0%	-23%	-0.4%	0.2	-19
COc1ccc(C)cc1NC(=O)c1c(C)nn(Cc2ccccc2)c1Cl	-1.6	1%[15.4 µM]	-23%	nt	1.6	8
Cc1cc(OCc2nn[nH]n2)c2c3c(c(=O)oc2c1)CCCC3	1.3	6%	-13%	6.3µM*	2.0	-17
O=C(O)c1ccc([N+](=O)[O-])c([N+](=O)[O-])c1	nt	6%	-10%	nt	-0.4	14
COc1ccc(-c2ccc3n2Cc2cnnn2-c2ccccc2-3)cc1	nt	nt	?	3.6%	4.0	8
O=c1[nH]c2ccccc2n1C1CCN(C(c2ccnc3ccccc23)c2nnnn2Cc2ccccc2)CC1 (configuration not stated)	nt	nt	nt	1.3%	0.7	4
CCOc1ccc(N=Cc2c(O)n(-c3ccc(C)c(C)c3)c(=O)[nH]c2=O)cc1	3.5	-42%[15.4 µM]	-19%	nt	26	-2
O=C(NN=Cc1ccc(N(CCCl)CCCl)cc1)c1cc(=O)[nH]c(=O)[nH]1	nt	?	-4%	nt	-0.8	-8
N=C1SCC(=O)N1Cc1ccccc1	4.8	11%[15.4 µM]	16%	nt	-0.5	-2
Clc1cccc(NC2=NCCS2)c1	nt	-51%[inhibitor]	nt	-2.4%	-0.5	1
Cc1ccc(CN2C3CCCC2CC(NC(=S)NCc2ccccc2)C3)cc1 (configuration not stated)	-1.8	-10%[15.4 µM]	7%	nt	0.3	-11
CCN(CC)CC(=O)Nc1ccc(Cl)cc1C(=O)c1ccccc1	nt	-10%[15.4 µM]	-11%	-2.9%	2.4	-7
